A1 apoptosis 2 – compounds inhibiting A1, read as caspase activation | caspase activation, % (no concentration beside the values) | 24,000 tested, under 10 active | MEF A1-2A-BIM cells, caspase-Glo luminescence, 3 h; percent of clofoctol response, DMSO zero; in the data active = caspase activation above about 5.9%;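 also: wells of about 30 µL received 50 nL stock; the first replicate is given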
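system = A1-2A-BIM-expressing MEF cells | quantity = 2500 MEF cells/well | dosing = 50 nL compound per well, pinned | schedule = overnight cell settling, then 3 h compound exposure, 37 °C | signal = luminescence from DEVD-luciferin Caspase-Glo reagent, 1:1 in 50 mM HEPES, 1 h RT | read-out = Caspase-3/7 activation, seen as rise in luminescence signal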
An asterisk follows results filed as active. An excerpt (hit frequency here may not be typical).

SMILES	A1 apoptosis 2
Cc1nc(S(=O)(=O)N[C@@H]2CCN(Cc3ccc(OCCO)cc3)C2)cn1C	-0.9
Cc1noc(C)c1S(=O)(=O)N(C)C[C@@H]1OCCCC[C@@H](C)Oc2ccc(N(C)C)cc2C(=O)N([C@H](C)CO)C[C@H]1C	0.4
Cc1noc(C)c1NC(=O)Nc1ccc2c(c1)C(=O)N([C@@H](C)CO)C[C@@H](C)[C@@H](CN(C)S(=O)(=O)c1ccc(Cl)cc1)OCCCC[C@H](C)O2	-0.6
COc1ccc(NC(=O)N(C)C[C@H]2OCCCC[C@H](C)Oc3ccc(NS(=O)(=O)c4ccc(C)cc4)cc3C(=O)N([C@@H](C)CO)C[C@H]2C)cc1	0.6
CC(C)NC(=O)Nc1ccc2c(c1)C(=O)N([C@H](C)CO)C[C@H](C)[C@@H](CN(C)Cc1ccccc1)OCCCC[C@H](C)O2	-1.1
C[C@H](CO)N1C[C@H](C)[C@@H](CN(C)Cc2ccncc2)Oc2ccc(NC(=O)CCCN(C)C)cc2CC1=O	-0.3
Cc1ccc(S(=O)(=O)Nc2cccc3c2O[C@H](CN(C)C)[C@@H](C)CN([C@H](C)CO)C3=O)cc1	0.2
C[C@@H]1CCCCO[C@H](CN(C)C(=O)c2ccncc2)[C@H](C)CN([C@@H](C)CO)C(=O)c2cc(NS(=O)(=O)c3ccc(F)cc3)ccc2O1	0.0
C[C@H]1CN([C@@H](C)CO)C(=O)c2cc(NC(=O)CCCN(C)C)ccc2O[C@@H]1CN(C)S(=O)(=O)c1cn(C)cn1	-0.3
COc1ccc(S(=O)(=O)N(C)C[C@H]2Oc3c(NC(=O)c4cc(C)nn4C)cccc3C(=O)N([C@@H](C)CO)C[C@H]2C)cc1	0.1
COc1ccc(NC(=O)Nc2cccc3c2O[C@@H](CN(C)C(=O)Nc2ccccc2)[C@H](C)CN([C@@H](C)CO)C3=O)cc1	0.5
Cc1noc(C)c1S(=O)(=O)N(C)C[C@@H]1Oc2ccc(NC(=O)Nc3ccc(F)cc3)cc2CC(=O)N([C@H](C)CO)C[C@H]1C	1.0
Cc1noc(C)c1NC(=O)N(C)C[C@@H]1Oc2c(NC(=O)NC3CCCCC3)cccc2C(=O)N([C@@H](C)CO)C[C@H]1C	-0.2
CC(C)NC(=O)N(C)C[C@H]1OCCCC[C@@H](C)Oc2ccc(NS(=O)(=O)c3cn(C)cn3)cc2C(=O)N([C@@H](C)CO)C[C@@H]1C	-1.6
Cc1noc(C)c1S(=O)(=O)N(C)C[C@H]1Oc2ccc(NC(=O)Cc3ccccc3)cc2CC(=O)N([C@@H](C)CO)C[C@@H]1C	0.9
COc1ccc(NC(=O)N(C)C[C@H]2Oc3c(cccc3N(C)C)C(=O)N([C@@H](C)CO)C[C@@H]2C)cc1	0.2
C[C@@H]1CN([C@H](C)CO)C(=O)c2cc(NC(=O)Nc3ccc4c(c3)OCO4)ccc2O[C@H]1CN(C)CC1CCCCC1	1.1
C[C@@H]1CN([C@H](C)CO)C(=O)c2cc(NS(=O)(=O)c3cccs3)ccc2O[C@H]1CN(C)C(=O)Nc1ccc2c(c1)OCO2	0.3
C[C@H](CO)N1C[C@H](C)[C@@H](CN(C)C)Oc2ccc(NC(=O)Cc3ccccc3)cc2C1=O	1.8
C[C@H]1CN([C@@H](C)CO)C(=O)c2cccc(NS(C)(=O)=O)c2O[C@H]1CN(C)S(C)(=O)=O	0.9
C[C@@H]1CN([C@@H](C)CO)C(=O)c2cccc(NS(=O)(=O)c3ccc(Cl)cc3)c2O[C@@H]1CN(C)C(=O)Nc1cccc2ccccc12	0.1
C[C@H]1CCCCO[C@H](CN(C)C(=O)C2CCCCC2)[C@@H](C)CN([C@@H](C)CO)C(=O)c2cc(NC(=O)c3ccccc3)ccc2O1	0.0
C[C@H](CO)N1C[C@H](C)[C@@H](CN(C)S(=O)(=O)c2ccc(F)cc2)Oc2c(NC(=O)c3ccc(-c4nccs4)cc3)cccc2C1=O	-0.5
C[C@H](CO)N1C[C@H](C)[C@H](CN(C)S(=O)(=O)c2cccs2)Oc2ccc(NS(C)(=O)=O)cc2C1=O	-0.1
C[C@@H]1CCCCO[C@H](CN(C)S(=O)(=O)c2ccccc2)[C@H](C)CN([C@H](C)CO)C(=O)c2cc(N(C)C)ccc2O1	-1.5

New compounds follow:
SMILES	A1 apoptosis 2
C[C@@H]1CCCCO[C@H](CN(C)C(=O)c2ccccc2)[C@@H](C)CN([C@@H](C)CO)C(=O)c2cc(NS(C)(=O)=O)ccc2O1	2.9
C[C@H](CO)N1C[C@H](C)[C@@H](CN(C)Cc2ccc(C(=O)Nc3ccccc3N)cc2)Oc2ccc(NC(=O)Nc3cccc4ccccc34)cc2C1=O	1.4
COc1ccc(S(=O)(=O)N(C)C[C@H]2Oc3ccc(NC(=O)CCN4CCOCC4)cc3C(=O)N([C@H](C)CO)C[C@H]2C)cc1	0.3
C[C@H](CO)N1C[C@H](C)[C@@H](CN(C)S(=O)(=O)c2ccc(Cl)cc2)Oc2ccc(NC(=O)NC3CCCCC3)cc2C1=O	-1.3
C[C@@H]1CCCCO[C@H](CN(C)S(=O)(=O)c2cn(C)cn2)[C@H](C)CN([C@@H](C)CO)C(=O)c2cc(NC(=O)c3ccncc3)ccc2O1	-0.9
C[C@@H]1CCCCO[C@H](CN(C)Cc2ccc(C(=O)O)cc2)[C@H](C)CN([C@@H](C)CO)C(=O)c2cc(NC(=O)Nc3ccc(C(F)(F)F)cc3)ccc2O1	-0.2
C[C@@H]1CN([C@@H](C)CO)C(=O)c2cccc(NC(=O)Nc3ccc(C(F)(F)F)cc3)c2O[C@@H]1CN(C)C	-0.8
COc1ccc(S(=O)(=O)Nc2ccc3c(c2)C(=O)N([C@@H](C)CO)C[C@@H](C)[C@H](CN(C)C(=O)NC2CCCCC2)OCCCC[C@H](C)O3)cc1	-0.1
CC(C)NC(=O)N(C)C[C@H]1OCCCC[C@@H](C)Oc2ccc(NC(=O)Nc3ccc4c(c3)OCO4)cc2C(=O)N([C@H](C)CO)C[C@@H]1C	0.5
C[C@H]1CN([C@@H](C)CO)C(=O)CCCn2nncc2CO[C@@H]1CN(C)C(=O)NC1CCCCC1	-0.6
Cc1cc(C(=O)Nc2cccc3c2O[C@@H](CN(C)CC2CC2)[C@@H](C)CN([C@@H](C)CO)C3=O)n(C)n1	1.3
C[C@H](CO)N1C[C@H](C)[C@@H](CN(C)C(=O)NC2CCCCC2)Oc2c(NC(=O)Nc3ccc4c(c3)OCO4)cccc2C1=O	-1.2
C[C@@H]1CN([C@H](C)CO)C(=O)Cc2cc(NC(=O)C3CC3)ccc2O[C@H]1CN(C)S(=O)(=O)c1ccc(F)cc1	-1.6
C[C@H](CO)N1C[C@H](C)[C@H](CN(C)CC2CCCCC2)OCc2cn(nn2)CCCC1=O	0.0
Cc1noc(C)c1S(=O)(=O)N(C)C[C@@H]1OCCCC[C@H](C)Oc2ccc(NC(=O)C3CCCCC3)cc2C(=O)N([C@@H](C)CO)C[C@H]1C	0.0
C[C@@H]1CCCCO[C@H](CN(C)C(=O)c2ccccc2)[C@@H](C)CN([C@@H](C)CO)C(=O)c2cc(NC(=O)Nc3ccc(C(F)(F)F)cc3)ccc2O1	0.5
C[C@H](CO)N1C[C@H](C)[C@H](CN(C)CC2CC2)Oc2ccc(NC(=O)C3CCCCC3)cc2C1=O	1.4
C[C@H](CO)N1C[C@H](C)[C@H](CN(C)CC2CCCCC2)Oc2c(NC(=O)NC3CCCCC3)cccc2C1=O	0.4
Cc1ccc(S(=O)(=O)Nc2ccc3c(c2)C(=O)N([C@H](C)CO)C[C@H](C)[C@@H](CN(C)C(=O)Nc2c(C)noc2C)OCCCC[C@H](C)O3)cc1	0.9
C[C@H]1CN([C@@H](C)CO)C(=O)c2cc(NC(=O)Cn3cnnn3)ccc2O[C@@H]1CN(C)S(=O)(=O)c1ccccc1	0.9
COc1ccc(COC[C@@]23Oc4ccccc4[C@@H](NC(=O)N2C)[C@H]3COC(=O)c2ccccc2)cc1	0.6
COc1ccc(CN(C)C[C@H]2Oc3c(NC(=O)NC(C)C)cccc3C(=O)N([C@H](C)CO)C[C@H]2C)cc1	-0.5
Cc1noc(C)c1S(=O)(=O)Nc1ccc2c(c1)CC(=O)N([C@@H](C)CO)C[C@@H](C)[C@H](CN(C)Cc1ccccc1)O2	-0.7
COc1ccc(CN(C)C[C@@H]2Oc3c(NC(=O)c4ccc(-c5nccs5)cc4)cccc3C(=O)N([C@@H](C)CO)C[C@H]2C)cc1	-0.1
Cc1ccc(S(=O)(=O)N(C)C[C@H]2OCCCC[C@H](C)Oc3ccc(N(C)C)cc3C(=O)N([C@H](C)CO)C[C@@H]2C)cc1	0.2

Next compounds follow:
SMILES	A1 apoptosis 2
COc1ccc(CN(C)C[C@@H]2OCCCC[C@@H](C)Oc3ccc(NC(=O)CCC(F)(F)F)cc3C(=O)N([C@@H](C)CO)C[C@@H]2C)cc1	-0.1
C[C@@H]1CN([C@H](C)CO)C(=O)Cc2cc(NC(=O)C3CCCCC3)ccc2O[C@H]1CN(C)Cc1ccc2c(c1)OCO2	0.3
C[C@H]1CCCCO[C@H](CN(C)S(=O)(=O)c2ccc(F)cc2)[C@@H](C)CN([C@@H](C)CO)C(=O)c2cc(NS(C)(=O)=O)ccc2O1	1.5
CNC[C@H]1Oc2c(NC(=O)Nc3ccccc3)cccc2C(=O)N([C@@H](C)CO)C[C@@H]1C	-0.3
COc1ccc(CN(C)C[C@H]2Oc3ccc(NC(=O)CCC(F)(F)F)cc3CC(=O)N([C@H](C)CO)C[C@@H]2C)cc1	0.2
COc1ccc(S(=O)(=O)Nc2ccc3c(c2)C(=O)N([C@H](C)CO)C[C@H](C)[C@H](CN(C)CC2CC2)O3)cc1	2.4
COc1ccc(NC(=O)N(C)C[C@H]2OCCCC[C@H](C)Oc3ccc(NC(=O)C4CCCCC4)cc3C(=O)N([C@@H](C)CO)C[C@H]2C)cc1	-0.7
C[C@@H]1CN([C@@H](C)CO)C(=O)c2cc(NC(=O)CCCN(C)C)ccc2O[C@@H]1CN(C)S(=O)(=O)c1cccs1	0.3
C[C@H]1CN([C@@H](C)CO)C(=O)c2cccc(NC(=O)C3CC3)c2O[C@H]1CN(C)C(=O)Nc1ccc2c(c1)OCO2	-1.1
C[C@@H]1CN([C@H](C)CO)C(=O)Cc2cc(NC(=O)Nc3ccc(F)cc3)ccc2O[C@H]1CN(C)C(=O)Nc1cccc2ccccc12	-0.7
COc1ccc(/C=N/NC(=O)c2ccccn2)cc1O	-10.0
C[C@H](CO)N1C[C@H](C)[C@@H](CN(C)C(=O)Nc2ccc(F)cc2)Oc2c(NC(=O)C3CCOCC3)cccc2C1=O	-0.7
C[C@@H]1CN([C@@H](C)CO)C(=O)c2cccc(NC(=O)c3cnccn3)c2O[C@H]1CN(C)S(C)(=O)=O	0.5
O=C(N/N=C/C=C/c1ccccc1)c1ccccn1	-3.7
CC(C)NC(=O)N(C)C[C@@H]1Oc2ccc(NC(=O)Cc3ccccc3)cc2CC(=O)N([C@@H](C)CO)C[C@H]1C	-0.9
C[C@@H]1CN([C@@H](C)CO)C(=O)CCCn2cc(nn2)CO[C@@H]1CN(C)S(=O)(=O)c1ccc2ccccc2c1	1.5
C[C@@H]1CN([C@H](C)CO)C(=O)c2cc(N(C)C)ccc2O[C@@H](C)CCCCO[C@H]1CN(C)C(=O)Nc1ccccc1	0.4
Cc1ccc(S(=O)(=O)N(C)C[C@H]2OCCCC[C@H](C)Oc3ccc(NC(=O)C4CCCCC4)cc3C(=O)N([C@@H](C)CO)C[C@@H]2C)cc1	-0.5
C[C@H](CO)N1C[C@H](C)[C@@H](CN(C)C(=O)Nc2cccc3ccccc23)OCCCC[C@H](C)Oc2ccc(NC(=O)Nc3ccc(C(F)(F)F)cc3)cc2C1=O	-0.6
C=CCOC(=O)[C@H]1[C@@H]2C(=O)O[C@@H](c3ccccc3)[C@@H](c3ccccc3)N2[C@@H](c2ccc(OCCOC(=O)[C@@H]3C[C@@H]4C(=O)N[C@@H](Cc5ccccc5)C(=O)N4[C@@H]3c3cccc(OCCO)c3)cc2)[C@]12C(=O)Nc1ccc(I)cc12	-0.6
C[C@H](CO)N1C[C@H](C)[C@H](CN(C)C(=O)NC2CCCCC2)Oc2c(NS(=O)(=O)c3cn(C)cn3)cccc2C1=O	-1.5

From PubChem BioAssay
